Screens (PubChem)
NS1 function inh = qHTS Assay for Inhibitors of Influenza NS1 Protein Function | S. cerevisiae slowed by influenza A NS1, growth recovery by OD600 | Potency, µM (top dose mostly 46.1 µM), for the others: at the highest dose activity, positive = more growth | 270,000 compounds, 0.4% hits | AID 2326, 2010; active means well fitted rising curve with a large enough effect; inconclusive means small, poorly fitted or top-dose-only effect; inactive means no such curve, though single readings can be large or run the other way; also: nearly all actives have a fitted effect of over 50% in size
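Read-out: OD600 growth recovery of NS1-expressing budding yeast. Cells grown overnight at 30C in -URA glucose medium, washed, resuspended and diluted 1:100 in 2% galactose assay medium, pH 6.0. Same strain lacking NS1 served as positive control.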
LASV entry inh = qHTS for Inhibitors of binding or entry into cells for Lassa Virus | Potency, µM (highest dose often 37.9 µM), inactives show top-dose activity change, negative = inhibition, actives largely listed as inhibitors | Lassa virus pseudotype entry inhibition, cell reporter; control for the full effect not named in the record | AID 540256, 2011 | 300,000 compounds, 1.2% hits; active means well fitted inhibition curve with a large enough effect; inconclusive means small, poorly fitted or top-dose-only effect, or effect the other way; inactive means flat fitted curve, though single readings scatter; tested in HEK293 cells; also: % is scaled to controls: 0 for no effect and ±100 for the full control effect; nearly all actives have a fitted effect of over 50% in size; luciferase read-out
SARS PLP yeast = qHTS of Yeast-based Assay for SARS-CoV PLP | 330,000 compounds, 0.19% hits | Potency, µM (doses to about 32.9 µM), for the others: at the highest dose activity, positive = growth rescue | S. cerevisiae expressing SARS-CoV PLpro, growth rescue; control for the full effect not named in the record; active means well fitted rising curve with a large enough effect; inconclusive means small, poorly fitted or top-dose-only effect; inactive means no such curve, though single readings can be large or run the other way; also: 0% is about no effect; nearly all actives have a fitted effect of over 55% in size; growth read by luminescence after 48 h
Cruzain inh Det = qHTS Assay for Promiscuous and Specific Inhibitors of Cruzain (with detergent); Cruzipain (Trypanosoma cruzi), P25779; purified cruzain, Z-FR-AMC fluorescence, 0.01% Triton; Potency, µM, without a hit: max response, negative = inhibition, usual class: inhibitors; 200,000 compounds, 0.43% hits; AID 1478, 2009;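 also: plate controls were neutral wells for no effect and buffer without enzyme for full effect; nearly all actives have a fitted effect of over 40% in size; top concentration of the series not given in the record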
Target sequence (P25779 123-467 limits assumed): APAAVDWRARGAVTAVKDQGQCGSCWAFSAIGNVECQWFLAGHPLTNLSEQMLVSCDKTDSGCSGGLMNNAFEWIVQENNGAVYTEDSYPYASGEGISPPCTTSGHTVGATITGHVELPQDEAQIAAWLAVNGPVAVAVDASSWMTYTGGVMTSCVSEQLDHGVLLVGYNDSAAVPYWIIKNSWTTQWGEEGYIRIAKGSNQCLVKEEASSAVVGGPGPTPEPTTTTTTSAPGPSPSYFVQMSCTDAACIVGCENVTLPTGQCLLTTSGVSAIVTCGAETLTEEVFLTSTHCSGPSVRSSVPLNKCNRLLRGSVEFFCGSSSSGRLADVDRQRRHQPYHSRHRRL
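Detergent-containing arm of a paired screen for aggregation-based inhibition: 0.01% Triton X-100 present. Cruzain at 1.5 nM cleaved 2 uM Z-FR-AMC at pH 5.5 with 5 mM DTT; AMC fluorescence gain over 60 s measured activity.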
2A StopGo = High Throughput Screening for Foot and Mouth Disease Virus Antivirals; human cells with a luciferase reporter of 2A StopGo recoding; control for the full effect not named in the record; Potency, µM (highest dose often 57.9 µM), for inactives: at the highest dose signal change, negative = less light; 410,000 compounds, 1.2% hits; active = well fitted falling curve with a large enough effect; inconclusive = small, poorly fitted or top-dose-only effect; inactive = no such curve, though single readings can be large or run the other way; tested in HEK293T cells; also: % is scaled to controls: 0 for no effect and ±100 for the full control effect; nearly all actives have a fitted effect of over 45% in size; luciferase light after 4 h
Cruzain inh noDet = qHTS Assay for Promiscuous and Specific Inhibitors of Cruzain (without detergent) | purified cruzain, Z-FR-AMC fluorescence, no detergent | Potency, µM, inactives show max response, negative = inhibition, most hits filed as inhibitors | 200,000 compounds, 2.3% hits;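 also: plate controls were enzyme without inhibitor for no effect and buffer without enzyme for full effect; nearly all actives have a fitted effect of over 40% in size; top concentration of the series not given in the record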
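Purified cruzain at 1.5 nM, pre-incubated 15 min with compound at room temperature in 100 mM sodium acetate pH 5.5, 5 mM DTT, 0.00005% Triton X-100. Reaction started with 2 uM Z-FR-AMC; AMC fluorescence increase over 60 s gives rate.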
RE007 growth inh = qHTS Assay for Inhibitors of the HIV-1 protein Vpr | S. pombe RE007 Vpr strain, BacTiter-Glo ATP luminescence, 24 h; control for the full effect not named in the record | Potency, µM (highest dose often 92.2 µM), for inactives: at the top dose activity change, negative = less growth | 360,000 compounds, 0.21% hits | AID 651644, 2012; active = well fitted falling curve with a large enough effect; inconclusive = small, poorly fitted or top-dose-only effect; inactive = no such curve, though single readings can be large or run the other way;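 also: % is scaled to controls: 0 for no effect and ±100 for the full control effect; nearly all actives have a fitted effect of over 50% in size; the assay follows cell death caused by Vpr and the record does not say whether a fall means rescue or toxicity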
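Fission yeast RE007 carrying one integrated HIV-1 vpr copy, seeded at OD 0.01 in PMG+AL medium with 23 nL pinned compound. Grown 24 h at 30 degrees; viability read by BacTiter-Glo luminescence after 5 min.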
Marburg entry inh = qHTS for inhibitors of binding or entry into cells for Marburg Virus; Potency, µM (titrated, usually from 37.8 µM), inactives show at the highest dose activity change, negative = inhibition, usual class: inhibitors; Marburg virus pseudotyped entry inhibition, cell reporter; control for the full effect not named in the record; about a third of the inactives were read at about 46 µM; AID 540276, 2011; 300,000 compounds, 1.8% hits; active = well fitted inhibition curve with a large enough effect; inconclusive = small, poorly fitted or top-dose-only effect, or effect the other way; inactive = flat fitted curve, though single readings scatter; tested in HEK293 cells; about a fifth of its hits are not listed in these tables; also: % is scaled to controls: 0 for no effect and ±100 for the full control effect; luciferase read-out
Active calls of the source: *; ? = inconclusive; · = not tested or not shown; & = joins results of further samples; [ ] = another dose, or the depositor's remark. Unless noted, calls follow the shape of the dose curve; as a rule, active = well fitted curve in the direction sought with a large enough effect; inconclusive = small, poorly fitted or top-dose-only effect, or another doubt; inactive = no such curve, though single readings can be large; an effect the other way counts as inactive or inconclusive. Potency is read from the fitted curve at half-maximal effect.

SMILES	NS1 function inh	LASV entry inh	SARS PLP yeast	Cruzain inh Det	2A StopGo	Cruzain inh noDet	RE007 growth inh	Marburg entry inh
CCn1ncc(C(=O)Nc2ccc(F)cc2)c1C	·	-15%[46.1 µM]	·	·	47%[activator]	·	-11%	?
CCOc1cc(C(=S)N2CCCCC2)ccc1OS(=O)(=O)c1ccc(Cl)cc1	2%	-26%	-5%	6.1%	0%	-12%	-7%	-28%
Cc1sc(NC(=O)c2cccc([N+](=O)[O-])c2)c(C(N)=O)c1-c1ccc(C(C)(C)C)cc1	3%	8%	3%	3.9%	?	13µM*	-2%	?
CCCN1C(=O)c2cc(C(=O)Nc3ccccc3CC)ccc2C1O (stereo not drawn)	5%	·	-3%	6.9%	-11%	9%	1%	·
COC(=O)c1ccccc1NC(=O)Cn1cnc2c(cnn2-c2ccccc2)c1=O	9%	-3%	11%	12%	-12%	-12%	10%	0%
COc1ccccc1OCCn1cc(/C=C(\C#N)C(=O)NCc2cccs2)c2ccccc21	4%	2%	-13%	-3.4%	-19%	?	·	-27%
CCOC(=O)c1c(NC(=O)COc2cccc(C)c2C)sc2c1CCC(CC)C2 (stereo not drawn)	·	?	·	-0.7%	-10%	8%	·	·
C/C(CC(=O)Nc1ccccn1)=N\NC(=O)c1ccc([N+](=O)[O-])cc1Cl	-29%	·	0%	·	-5%	·	9%	21%[46.1 µM]
N#CCCn1cc(/C=N/NC(N)=S)c(-c2ccc(Br)cc2)n1	·	-2%[46.1 µM]	-1%	·	-14%	·	-6%	?
CCN1C(=O)S/C(=C/c2ccsc2)C1=O	-10%	23%	8%	-1.0%	12%	-5%	-19%	20%
COc1ccccc1C=NNC(=O)c1ccccc1OCCOc1ccccc1	·	?	-14%	·	-28%	·	0%	?
Cc1ccc(-c2nc(C3CCN(S(=O)(=O)c4ccc(C(F)(F)F)cc4)CC3)no2)cc1	0%	-6%	7%	-7.9%	-5%	-5%	-20%	-4%
COCc1nnc(NC(=O)c2ccc(Cl)cc2[N+](=O)[O-])s1	3%	17%	10%	-2.4%	3%	-4%	-2%	-3%
Cc1csc(NC(=O)Cc2ccccc2Cl)n1	19%	?	?	·	7%	·	-17%	?
Cc1onc(-c2ccccc2)c1C(=O)OCC(=O)N(C)c1ccccc1	·	?	11%	·	5%	·	-4%	17%
CCCn1c(SCC(=O)c2ccc(OC)c(OC)c2)nc2c1c(=O)n(C)c(=O)n2C	7%	8%	-2%	4.6%	-20%	?	-19%	10%
COc1ccc(N2CCN(Cc3nnc(-c4ccc5c(c4)OCO5)o3)CC2)cc1	·	15%[46.1 µM]	·	-1.0%	-8%	-14%	·	11%[46.1 µM]
CCOc1ccc(/C=C/C(O)=C2/C(=O)N(C)C3(C)CC2c2ccccc2O3)cc1OC (stereo not drawn)	·	3.5µM*	0%	·	?	·	-12%	?
COCCCNc1nc2c(S(=O)(=O)c3ccccc3)nnn2c2ccc(Cl)cc12	·	·	·	-0.8%	21%	-7%	·	?
CCC1=NN(C(=O)c2ccc(C)cc2)C(O)(c2ccc(Br)cc2)C1 (stereo not drawn)	-15%	8%	-54%	-5.3%	3%	5%	-2%	-4%
CCc1ccccc1NC(=O)c1sc2nc(C)cc(C)c2c1N	-17%	?	-11%	·	2%	·	-1%	?
CC(=O)Oc1ccc(C(=O)Nc2cccc(C(=O)c3cccc(NC(=O)c4ccc(OC(C)=O)cc4)c3)c2)cc1	23%	?	-1%	-4.2%	?	1%	-6%	?
CC(C)[C@H](NC(N)=O)C(=O)Nc1cccc(S(=O)(=O)NC2=NCCCCC2)c1	·	1%	-9%	·	-8%	·	8%	15%
COC(=O)c1sccc1NC(=O)CSc1cccc(Cl)c1Cl	-21%	10%	-25%	-6.8%	-4%	5%	23%	26%
Cc1ccc(NC(=O)Cc2noc3ccccc23)cc1	-6%	?	-11%	-2.1%	75%[activator]	-14%	8%	?
S=C(NCc1ccncc1)Nc1ccc(Br)cc1	-2%	-9%	2%	·	43%[activator]	·	-15%	-19%
CCN(CC)C(=O)c1ccc(NC(=O)C2=C(C)OCCS2)cc1	-2%	·	1%	·	12%	·	8%	·
Cc1ccccc1CNS(=O)(=O)c1ccc2c(c1)OCCO2	-4%	3%	-12%	-1.6%	·	1%	4%	-1%
CCOC(=O)N1CCN(C(=O)CSCC(=O)Nc2nc(-c3ccc(-c4ccccc4)cc3)cs2)CC1	21%	·	-4%	-12%	?	29%	-9%	·
O=C(CC1C(=O)NCCN1Cc1ccc(-c2ccccc2)cc1)NCc1ccncc1 (stereo not drawn)	0%	·	1%	·	-6%	·	-9%	·
Cc1cc(NC(=O)CSc2nnc(-c3ccco3)n2CC2CCCO2)no1 (stereo not drawn)	2%	10%	0%	1.6%	-19%	-9%	20%	3%
Cc1ccc(OCCN(C)C)c([N+](=O)[O-])c1	17%	-10%	-1%	-3.4%	1%	-7%	·	20%
Cc1cccc(N2CCN(C(=O)CCc3c(C)nc4ncnn4c3C)CC2)c1C	·	7%[46.1 µM]	·	0.0%	-12%	3%	·	1%[46.1 µM]
C/C(=N/NC(=O)CNC(=O)c1ccco1)c1ccco1	7%	·	-4%	·	-14%	·	0%	·
Cn1c(N2CCOCC2)nc(-c2ccccc2)c1-c1ccccc1	-35%	?	-13%	1.3%	·	-2%	-17%	-21%
O=C(Cn1nc(Cl)nc1Cl)c1ccc2c(c1)OCCO2	-144%	-6%	11µM*	-3.8%	?	-4%	?	?
CS(=O)(=O)N(CC(=O)Nc1ccccc1Sc1ccccc1)c1cccc(Br)c1	23%	-19%	?	-1.6%	-9%	4%	2%	-24%
O=C(CSc1nc2nccnc2c(=O)n1Cc1cccs1)Nc1ccccc1F	11%	·	2%	·	-15%	·	-4%	·
Cc1oc2ccc(O)c(CN3CCCC3)c2c1C(=O)Nc1ccccc1	·	-12%[46.1 µM]	·	-3.4%	-10%	-26%	·	?
CN(C(=O)c1sc2nc(N3CCCC3)c3c(c2c1N)CC(C)(C)OC3)c1ccccc1	21%	·	-2%	·	-25%	·	-17%	·
Cc1ccc(Cl)cc1NC(=S)N(Cc1ccccc1)Cc1cccnc1	-7%	?	-6%	·	-16%	·	1%	?
CC1(C)Cc2cccc(C(=O)Nc3ccc(Cl)cc3)c2O1	-45%	·	-2%	·	-3%	·	-8%	·
O=C(O)CN1C(=O)C(=O)N(Cc2ccc(C(F)(F)F)cc2)C1=O	7%	·	1%	·	3%	·	5%	·
O=C(NCc1nnc(SCC(=O)N2CCC(Cc3ccccc3)CC2)o1)c1ccccc1F	-10%	-11%	-1%	-3.6%	?	-11%	-1%	-10%&-10%
Cc1cc(OCC(O)CN2CCN(C)CC2)ccc1C(C)C (stereo not drawn)	-11%	-3%[46.1 µM]	2%	-0.4%	-5%&-20%	13%	-2%&-5%	?
O=S(=O)(/N=C(/NNS(=O)(=O)c1ccccc1)c1ccccc1)c1ccccc1	-1%	·	0%	·	21%	·	10%	·
O=C(Nc1cccc(-c2cn3ccccc3n2)c1)c1cccs1	-22%	6%	-16%	-5.6%	17%	3%	21%	3%
N#CC(C#N)=C/C=C(\Nc1ccc(Cl)cc1)c1ccc(Cl)cc1	6%	·	0%	·	-6%	·	-13%	·
Cc1ccc(CSCCNC(=O)CCSc2ccccc2)cc1	-2%	-4%	-9%	-0.6%	2%	19%	-13%	22%
O=C(CSc1nc2c(cnn2-c2ccccc2)c(=O)[nH]1)N1N=C(c2cccs2)CC1c1ccc(F)cc1 (stereo not drawn)	13%	6%	-4%	-5.3%	-16%	?	3%	-10%
Nc1ccc(Sc2cnn(-c3ccccc3)c(=O)c2Cl)cc1	-57%	?	4%	-2.4%	-5%	4%	-5%	-4%
Cc1cccn2c(=O)c3cc(C(=O)NC4CCCCC4)c(=N)n(Cc4ccccc4)c3nc12	8%	?	-3%	·	-21%	·	11%	-16%[46.1 µM]
CC1CCCN(Cc2ccc(OCc3ccccc3)cc2)C1 (stereo not drawn)	-12%	-18%	-7%	·	22%	·	-4%	?
COc1ccccc1OCCCn1c(-c2ccc(Cl)cc2)nc2ccccc2c1=O	·	18%[46.1 µM]	·	-2.7%	0%	3%	·	4%[46.1 µM]
Nc1ccc2nc(C(F)(F)F)[nH]c2c1	0%	-1%	1%	·	-13%	·	3%	10%
CN(C)S(=O)(=O)c1cccc(NC(=O)COC(=O)CNC(=O)c2cccc([N+](=O)[O-])c2)c1	1%	·	3%	·	12%	·	15%	·
CN(CC(=O)Nc1ccccc1N1CCOCC1)CC(=O)Nc1ccc(F)c(F)c1F	·	-3%[46.1 µM]	2%	·	8%	·	-28%	-6%[46.1 µM]
Cc1cccc(NC(=O)c2ccccc2O)c1C	-73%	11%	-37%	1.2%	·	-2%	?	-16%
CCOC(=O)c1ccc2c(c1)n(Cc1ccccc1)c(C)[n+]2CC	4%	?	1%	·	-16%	·	?	-3%[46.1 µM]
Cc1cccc(C(=O)N2CCc3cc(CNC(=O)c4cc5ccccc5[nH]4)ccc32)c1	·	-18%[46.1 µM]	·	-0.7%	-3%	32µM*	·	·
Cc1ccc(C)c(NC(=O)CCN2CCN(C)CC2)c1	-9%	6%	0%	·	-19%	·	-5%	18%
Cc1cc(C)nc(NNS(=O)(=O)c2ccc(Cl)cc2)n1	·	11%	3%	·	2%	·	-6%	?
Cc1[nH]n(-c2ccccc2)c(=O)c1C=Nc1ccc(S(=O)(=O)N=C(N)N)cc1	-3%	·	1%	·	21%	·	-3%	·
